AID504770 = growth inhibition of E. coli YBA685, primary screen, V. cholerae RctB inhibitors; E. coli YBA685 rctB-dependent plasmid, OD600 growth, 3 h; hits give low values; z-score (test concentration not listed); 130,000 compounds, 0.27% hits; AID 504770, 2011;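 active means z-score under -2 on both plates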;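 further: wells of about 30 µL received 100 nL stock; score is relative to mean and SD of the test wells; the first replicate is given; strong numbers were not always called active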
Ba CapD inh = Bacillus anthracis CapD inhibitors, primary screen, biochemical, fluorescence intensity | purified CapD enzyme, fluorescence intensity read-out; hits give low values; some hits fall short of the stated cut | z-score (test concentration not listed) | 140,000 compounds, 0.23% hits | CapD gamma-glutamyltranspeptidase (Bacillus anthracis Ames Ancestor) | AID 492967, 2010;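 active means z-score under -4 in either of two replicates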;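 further: stock transfer was 100 nL into about 40 µL; score is relative to mean and spread of the plate; one replicate is shown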
The depositor's hits bear a star. This is a subset. The share of hits here may be higher or lower than overall.

Results for Nc1cc(=O)[nH]c(=O)n1C1CC1 ?
AID504770: 0.1

Results for FC(F)(F)c1ccc(-c2noc(C3CCCCC3)n2)cc1 ?
AID504770: -1.1; Ba CapD inh: 0.105

What do the screens show for `CN(C)C(=O)COC(=O)c1ccc(C#N)cc1`?
AID504770: -0.75

How did Cc1ccc(C)c(OC(=O)C2CC(=O)N(c3ccc4c(c3)OCCO4)C2)c1C (stereo not given) do in these assays?
AID504770: 0

How did O=C(NCc1ccccc1Cl)c1ccc2c(Cl)c3c(nc2c1)CCCC3 do in these assays?
AID504770: 0.2; Ba CapD inh: -0.43

How did COC(=O)C(NC(=O)c1ccccc1Cl)(Nc1sc2c(c1C#N)CCC(C(C)(C)C)C2)C(F)(F)F (stereo not given) do in these assays?
Ba CapD inh: -0.31

Results for CCOC(=O)C1=C(C)NC2=C(C(=O)CC(C)(C)C2)C1c1ccccc1 (stereo not given) ?
AID504770: 0.6; Ba CapD inh: 3.75

How did Cn1nc(OC(=O)Nc2ccccc2)cc1C(F)(F)F do in these assays?
AID504770: -0.2; Ba CapD inh: 0.535

Results for O=C(C1=NNC2C(=O)N(c3ccccc3)C(=O)C12)c1cccnc1 (stereo not given) ?
AID504770: -0.4; Ba CapD inh: -0.715

What do the screens show for `O=C1CN(C(=O)c2ccc(N3CCCCC3)c([N+](=O)[O-])c2)c2ccccc2N1`?
Ba CapD inh: 0.23

What do the screens show for `CCN1CCN(S(=O)(=O)c2ccc(Oc3ccccc3)cc2)CC1`?
AID504770: 0.55; Ba CapD inh: 0.45

How did CSCCC(NC(=O)c1ccc(C(F)(F)F)cc1)C(=O)N/N=C/c1cc(Br)cc(Br)c1O (stereo not given) do in these assays?
Ba CapD inh: -0.285

Results for CCOC(=O)COc1nc(C)c(Br)c(COC)c1C#N ?
Ba CapD inh: 0.01

What do the screens show for `Cc1cccc(N(CC(O)CN(Cc2ccccc2)Cc2ccccc2)S(=O)(=O)c2ccccc2)c1` (stereo not given)?
Ba CapD inh: 0.12

Results for CC(O)C(=O)N/N=C/c1ccccc1 (stereo not given) ?
AID504770: 1.2; Ba CapD inh: -0.645

What do the screens show for `Cc1ccc2c(c1)c1c(n2CC(O)CO)C(=O)CCC1` (stereo not given)?
AID504770: -0.1; Ba CapD inh: 8.84

What do the screens show for `Fc1ccc2c(c1)c1nc3ccccc3nc1n2Cc1ccc(Cl)cc1`?
Ba CapD inh: 1.81

How did CN(C)c1ccc2nc3c(nc2c1)C(=O)c1ccccc1C3=O do in these assays?
AID504770: -0.55; Ba CapD inh: 0.045

Results for CCN(CC)C(=O)Cc1c[nH]c2c(F)c(F)c(F)c(F)c12 ?
Ba CapD inh: -0.315

Results for COc1ccc(C2CC(=O)C3=C(C2)Nc2ccccc2NC3c2ccccc2Br)cc1OC (stereo not given) ?
Ba CapD inh: -0.565

What do the screens show for `Cc1ccccc1CC#N`?
AID504770: -0.2

What do the screens show for `Cn1c(SCC(=O)Nc2cc(C(C)(C)C)nn2-c2ccccc2)nnc1C1CC1`?
AID504770: 0.1

Results for COc1cccc(C2N(Cc3ccccc3)C(=O)C2(F)F)c1OC (stereo not given) ?
AID504770: 1.8; Ba CapD inh: -1.13

What do the screens show for `CC(C1CC2CCC1C2)n1c(SCC(=O)c2ccc(Cl)s2)nnc1-c1cccs1` (stereo not given)?
AID504770: -0.5

Results for CSc1nc2c(sc(=S)n2-c2ccccc2C)c(=O)n1-c1ccccc1C ?
AID504770: 1.15; Ba CapD inh: 4.14

How did CN(C)c1nc(-c2ccccc2)[nH]c(=O)n1 do in these assays?
AID504770: -0.55; Ba CapD inh: -0.44

What do the screens show for `COc1ccc(NC(=O)c2ccc3c(=O)n(Cc4cccc(Br)c4)c(=S)[nH]c3c2)cc1OC`?
Ba CapD inh: 0.185

What do the screens show for `CCc1ccc(Nc2cc(=O)n(C3CCCCC3)c(=O)[nH]2)cc1`?
AID504770: 2.45; Ba CapD inh: -0.1

Results for O=C(O)COc1ccc(/C=C2\C(=O)NC(=O)N(c3ccccc3)C2=O)cc1Br ?
Ba CapD inh: -0.455

How did O=C(CSc1nc2ccccc2o1)NCC1COc2ccccc2O1 (stereo not given) do in these assays?
AID504770: 1.9

Of the compounds above, four contain a Cl atom.
How did O=C(NCc1ccccc1Cl)c1ccc2c(Cl)c3c(nc2c1)CCCC3 do in these assays?
AID504770: 0.2; Ba CapD inh: -0.43

How did COC(=O)C(NC(=O)c1ccccc1Cl)(Nc1sc2c(c1C#N)CCC(C(C)(C)C)C2)C(F)(F)F (stereo not given) do in these assays?
Ba CapD inh: -0.31

What do the screens show for `Fc1ccc2c(c1)c1nc3ccccc3nc1n2Cc1ccc(Cl)cc1`?
Ba CapD inh: 1.81

What do the screens show for `CC(C1CC2CCC1C2)n1c(SCC(=O)c2ccc(Cl)s2)nnc1-c1cccs1` (stereo not given)?
AID504770: -0.5

Next part:
How did CC1=Nc2cc(C(=O)NCc3cccnc3)ccc2Sc2ccccc21 do in these assays?
AID504770: -0.9; Ba CapD inh: 4.86

What do the screens show for `CCOC(=O)c1cccc(N2C(=O)C3C(C(=O)NC4CC4)C4(C)C=CC3(O4)C2C(=O)NC(C)(C)C)c1` (stereo not given)?
AID504770: -0.55

Results for COC(=O)c1cc(O)c(C(=O)OC)s1 ?
AID504770: 0.1; Ba CapD inh: 8.08

How did CC(C)(C)c1ccc(-c2nc(=S)[nH][nH]2)cc1 do in these assays?
AID504770: -0.5; Ba CapD inh: 1.01

Results for CCn1ccc(C(=O)Oc2ccc(Cl)cc2)n1 ?
AID504770: 1.15; Ba CapD inh: -0.37

Results for CCN(CC(O)COc1ccc(OCC(O)CN(CC)C2CCCCC2)cc1)C1CCCCC1 (stereo not given) ?
AID504770: -0.6

What do the screens show for `CN1CCN(S(=O)(=O)c2ccc(Oc3ccc(Br)cc3Cl)nc2)CC1`?
AID504770: -1

What do the screens show for `CN(Cc1ccccc1)Cc1nnc(-c2ccccc2)o1`?
AID504770: -0.45; Ba CapD inh: -0.675

How did OCc1ccccc1CN1CCOCC1 do in these assays?
AID504770: -0.6; Ba CapD inh: 0.19

How did CC(C)NC(=O)CC(C)c1ccccc1 (stereo not given) do in these assays?
AID504770: -0.5; Ba CapD inh: 0.425

What do the screens show for `O=C(NC1CCCC1)c1cc(-c2ccc(F)cc2)no1`?
AID504770: -0.1; Ba CapD inh: -0.05

Results for CC(C)(CC(=O)O)CC(=O)N1CCN(c2ccc(F)cc2)CC1 ?
AID504770: -1.35; Ba CapD inh: -0.115

How did O=C(NCc1ccc2c(c1)OCO2)c1ccccc1CSc1nc2ccccc2o1 do in these assays?
AID504770: 0.4

Results for O=C(NCc1cccnc1)c1cc(-c2ccccc2)oc1-c1ccc(C(F)(F)F)cc1 ?
Ba CapD inh: 69

Results for O=C(CSc1ccc2nnc(-c3ccccc3)n2n1)NC1CCCC1 ?
AID504770: -1.05; Ba CapD inh: 7.21

Results for COC(=O)C1(OC)C(C(=O)c2ccc(Cl)cc2)=C(OC(c2ccccc2)c2ccccc2)C(=O)N1c1ccccc1 (stereo not given) ?
Ba CapD inh: -0.375

What do the screens show for `Nc1ccc2c(c1)nc(-c1ccccc1)c1cc(N)ccc12`?
AID504770: -0.05; Ba CapD inh: -0.8

Results for O=C(O)c1ccc(NC(=O)c2cccc(Br)c2)cc1 ?
AID504770: 0.25; Ba CapD inh: -0.4

What do the screens show for `CN1CCN(C(=S)c2cccc(OCc3ccccc3)c2)CC1`?
AID504770: -0.45; Ba CapD inh: -0.88

What do the screens show for `NC(=O)CCN1CCOCC1`?
AID504770: 1.9

Results for Cc1ccc2c(CC(=O)N(Cc3nnc(-c4ccccc4)o3)C(C)C)coc2c1 ?
AID504770: -0.45

How did CC(=O)Nc1nc2ccccc2n1Cc1ccccc1 do in these assays?
Ba CapD inh: -1.95

How did C=CCn1c(C)cc(C(=O)CSc2nnc(N)s2)c1C do in these assays?
AID504770: 0

What do the screens show for `CC1(C)CC(NC(=O)CCCOc2ccc(Cl)cc2Cl)CC(C)(C)N1`?
AID504770: -1.2; Ba CapD inh: 0.01

How did Nc1c(C(=O)Nc2ccc([N+](=O)[O-])cc2)sc2nc3c(cc12)CCCCC3 do in these assays?
Ba CapD inh: 0.105

Results for COC(=O)CSc1cc(C)nc2ccccc12 ?
Ba CapD inh: 0.345

Results for O=C(c1cccc(C(=O)N2CCN(c3ccccc3)CC2)c1)N1CCN(c2ccccc2)CC1 ?
AID504770: 0.1; Ba CapD inh: 0.145

What do the screens show for `O=S(=O)(NCCCn1ccnc1)c1ccc(Cl)s1`?
Ba CapD inh: -0.505

What do the screens show for `Nc1c(C(=O)Nc2nccs2)sc2nc3c(c(-c4cccs4)c12)CCC3`?
Ba CapD inh: -0.49

What do the screens show for `CN1C=C(C(F)(F)F)C=CC1=C(C#N)C#N`?
AID504770: -0.55

Fetched by structure from above:
What do the screens show for `Nc1c(C(=O)Nc2nccs2)sc2nc3c(c(-c4cccs4)c12)CCC3`?
Ba CapD inh: -0.49

What do the screens show for `NC(=O)CCN1CCOCC1`?
AID504770: 1.9

Sorted by molecular weight (largest number first): some entries from above
How did C=CCn1c(C)cc(C(=O)CSc2nnc(N)s2)c1C do in these assays?
AID504770: 0

What do the screens show for `O=S(=O)(NCCCn1ccnc1)c1ccc(Cl)s1`?
Ba CapD inh: -0.505

What do the screens show for `Nc1ccc2c(c1)nc(-c1ccccc1)c1cc(N)ccc12`?
AID504770: -0.05; Ba CapD inh: -0.8

The list goes on.
Results for Cc1cc(C(F)(F)F)nn1CCCNC(=O)c1cccs1 ?
AID504770: -0.45; Ba CapD inh: 0.405

How did COC(=O)c1cccc2c1NC(c1ccc(Cl)cc1Cl)C1CC=CC21 (stereo not given) do in these assays?
Ba CapD inh: 4.95

Results for CN1C(=O)/C(=C/C=C2\SCCN2C)OC1=S ?
AID504770: -0.05

Results for C=C(C)c1cccc(C(C)(C)NC(=O)Nc2ccc(C)cn2)c1 ?
AID504770: 3.15

What do the screens show for `N#Cc1ccccc1OCC(=O)Oc1ccc2c(c1)OCO2`?
AID504770: -0.3

How did CC(=O)N1c2ccccc2N=C(c2ccc(C)cc2)CC1c1ccc([N+](=O)[O-])cc1 (stereo not given) do in these assays?
Ba CapD inh: -0.045

Results for O=c1[nH]c2ccccc2n2c(=S)[nH]nc12 ?
AID504770: 0.6

How did CCN(c1ccccc1)S(=O)(=O)c1ccc(NCc2cccnc2)nc1 do in these assays?
AID504770: -0.55

How did O=C(Nc1ccc(C(=O)NCC2CCCO2)cc1)C1=CSCCO1 (stereo not given) do in these assays?
AID504770: 0.05; Ba CapD inh: -0.28

Results for COC(=O)c1cc(S(=O)(=O)N2CCCN(S(=O)(=O)c3ccc(Cl)c(C(=O)OC)c3)CC2)ccc1Cl ?
Ba CapD inh: -0.215

What do the screens show for `O=C1CN(C(=O)CSc2nc(-c3cccs3)cn2-c2ccccc2)c2ccccc2N1`?
AID504770: 0.15

What do the screens show for `O=C(CSc1nnnn1-c1ccccc1)Nc1ccc2nc(SCC(=O)NC3CC3)sc2c1`?
Ba CapD inh: 0.085

How did CC(C(=O)N(C(C)C)C(C)C)N1CCN(C)CC1 (stereo not given) do in these assays?
AID504770: 1.35

How did Cc1c(Cl)cccc1N1C(=O)C2C(c3ccccc3)OC3(C(=O)c4ccccc4C3=O)C2C1=O (stereo not given) do in these assays?
Ba CapD inh: 0.12

What do the screens show for `Cc1cccc(COC(=O)Nc2ccc(N3CCCCC3)cc2)c1`?
AID504770: -1.65; Ba CapD inh: -0.16

What do the screens show for `CC(C)(C)C(=O)Nc1cc(C2CC2)nn1-c1ccccc1`?
Ba CapD inh: 0.515

How did O=c1[nH]n(-c2ccccc2)c(=O)n1Cc1ccccc1F do in these assays?
AID504770: -0.5

Results for Cc1cc(C)c2oc(-c3cc(NC(=O)CC(C)C)ccc3Cl)nc2c1 ?
AID504770: 1; Ba CapD inh: 0.805

Results for O=c1cnnc(SCc2ccccc2)[nH]1 ?
AID504770: -0.5

How did O=S(=O)(O)c1ccc(Cc2ncc(C(F)(F)F)cc2Cl)s1 do in these assays?
Ba CapD inh: -0.51

Results for CCc1c(C)sc(NC(=O)/C=C/c2ccc(F)cc2)c1C(=O)OC ?
AID504770: 0.1; Ba CapD inh: -1.06

How did N#CC1=C(N)Oc2n[nH]c(-c3ccc(F)cc3)c2C12C(=O)N(CC(=O)O)c1ccccc12 (stereo not given) do in these assays?
Ba CapD inh: 0.755

What do the screens show for `COc1ccc(-c2n[nH]c(=S)[nH]c2=O)cc1`?
AID504770: 0.3

How did COC(=O)CSc1nnc(-c2ccc(NC(C)=O)cc2)o1 do in these assays?
AID504770: -1

Results for COc1cc(OC)cc(-c2nnc(NC(=O)c3ccc(S(=O)(=O)N4COCC4(C)C)cc3)o2)c1 ?
AID504770: -0.1

What do the screens show for `Fc1ccc(Sc2c(F)c(F)nc(N3CCNCC3)c2F)cc1`?
AID504770: -0.05; Ba CapD inh: 1.27

What do the screens show for `O=C(Cc1ccsc1)N/N=C/c1ccc(C(F)(F)F)cc1F`?
Ba CapD inh: -0.38

What do the screens show for `COc1ccc(Nc2nc3[nH]c(=O)cc(O)c3s2)cc1`?
AID504770: 1.35; Ba CapD inh: -2

Results for COc1ccc(CNC(=O)CSCc2ccccc2F)cc1 ?
AID504770: -0.55; Ba CapD inh: 0.15

What do the screens show for `Cc1cc(-c2ccc(S(=O)(=O)Nc3ccccc3)s2)n[nH]1`?
AID504770: -1.7; Ba CapD inh: -1.81

Results for Cc1cc2cc(CNC(=O)C(C)Oc3ccccc3)ccc2n1C (stereo not given) ?
AID504770: -0.45; Ba CapD inh: -0.78

How did CC(C)CN(CC(C)C)S(=O)(=O)N1CCC(C(=O)N2CCc3ccccc3C2)CC1 do in these assays?
AID504770: -0.3; Ba CapD inh: -3.95

Results for NNC(=O)c1ccccc1 ?
AID504770: 0.2

Results for Cc1ccc(NC(=O)Cn2cnc3sc(C(=O)Nc4cccc(C(F)(F)F)c4)c(C)c3c2=O)cc1Cl ?
Ba CapD inh: -0.59

Results for S=c1[nH]c2cc(Cl)ccc2o1 ?
Ba CapD inh: -0.555

Results for COc1cc(C=C2C(=O)NC(=O)NC2=O)ccc1OCCOc1ccc(C)cc1 ?
Ba CapD inh: -0.03

Screening results (PubChem)
